Mtb growth – Mycobacterium tuberculosis H37Rv growth inhibition, cell based, confirmatory dose response (AID 1949); actives 1.6% (n = 100,000); most inactive calls were filed without a number and no value below 0 was filed; inhibition, % at 10 µg/mL, or IC50 in µg/mL where a hit was titrated; M. tuberculosis H37Rv growth inhibition;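 active = confirmed in a dose series; inconclusive = about 50% or more but not retested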;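 also: bacteria grown 7 days with compound before Alamar blue readout; 0% = untreated bacteria and 100% = reference antibiotic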
* hit, by the source's call; i = inactive; ? = inconclusive. The list is partial; the hit share may differ from the screen's.

smiles,Mtb growth
CCOc1c(Cl)cc(C(=O)NCCc2ccc(OC)c(OC)c2)cc1Cl,3.7%
Cc1ccc(S(=O)(=O)N2CCC(Cc3ccccc3)CC2)cc1C(N)=O,i
CCOC(=O)c1cccc(NC2=C(Cl)C(=O)N(c3ccc(C)cc3)C2=O)c1,i
NC(=O)c1ccc(NC(=S)Nc2cccc(Cl)c2Cl)cc1,i
COc1ccc(-c2nc3ccccn3c2N)cc1,i
CC(C)Cn1c(-c2ccccc2Cl)nc2ccccc21,1.6%
Cc1ccc(N=C2NC(=O)CC(C(=O)Nc3ccc(Oc4ccccc4)cc3)S2)cc1 (stereo unspecified),i
CCOc1cccc(C(=O)Nc2sc3c(c2C(N)=O)CCC3)c1,45.9%
O=C(Nc1ccc(S(=O)(=O)Nc2ccc(I)cc2)cc1)C1CC1,i
CCOc1ccc(N2C(=O)CC(Cc3ccc(C)cc3)C2=O)cc1 (stereo unspecified),i

The list continues:
smiles,Mtb growth
CC(C)Cc1nnc(NC(=O)COc2ccc(Cl)cc2Cl)s1,i
Cc1ccc(C(=O)NCc2nnc(SCC(=O)Nc3ccc(Cl)c(Br)c3)n2C)cc1,i
NC(=O)C1CCN(Cc2nc(-c3ccccc3)no2)CC1,i
CC(C)(C)c1ccc(C(=O)Nc2ccc(F)cc2F)cc1,i
COc1cc(-c2ccc(NC(=O)c3ccc(C)o3)c(OC)c2)ccc1NC(=O)c1ccc(C)o1,i
Cc1cccc(C(C)(C)C)c1OCCNCCN,i
CC1CN(C(=S)Nc2ccccc2)CC(C)O1 (stereo unspecified),i
COc1ccc(OC)c(C(C)NC(=O)C2CCCCC2)c1 (stereo unspecified),i
CCC(C(=O)Nc1ccc(S(=O)(=O)NC(C)(C)C)cc1)c1ccccc1 (stereo unspecified),i
O=Cc1ccc(-c2ccc(C(=O)O)c(Cl)c2)o1,i

Carrying on:
smiles,Mtb growth
Cc1ccc2c(nc3s/c(=C\c4ccc(-c5ccccc5C(=O)O)o4)c(=O)n32)c1C,1.9%
Cc1ccc(-c2n[nH]c(=S)n2N=Cc2ccc(Cl)c(Cl)c2)cc1,i
COc1ccccc1Nc1nc(N)nc(C(F)(F)F)n1,i
CCOC(=O)Nc1cccc(NC(=O)OCC)c1,0.6%
COc1ccccc1-c1noc(-c2cccs2)n1,0.1%
CCOC(=O)Cc1c(C)nc2cc(-c3ccc(C)cc3)[nH]n2c1=O,i
O=C1C2C3c4ccccc4C([N+](=O)[O-])(c4ccccc43)C2C(=O)N1CCCO (stereo unspecified),i
CC(=O)Nc1ccc(-c2csc(Nc3ccc(Cl)cn3)n2)cc1,i
CCCn1nnc(NC(=O)c2cccc(OCC)c2)n1,i
O=C1CC(N2CCC(c3nc4ccccc4s3)CC2)C(=O)N1 (stereo unspecified),i

Some of the entries so far, with each value named:
> CCOC(=O)Cc1c(C)nc2cc(-c3ccc(C)cc3)[nH]n2c1=O
  Mtb growth: i
> CCCn1nnc(NC(=O)c2cccc(OCC)c2)n1
  Mtb growth: i

(next part)
smiles,Mtb growth
Cc1cc(OCC(=O)c2ccc(N3CCCC3)cc2)c2c3c(c(=O)oc2c1)CCC3,i
COc1cccc2cc(CC(=O)c3ccc(F)cc3)c(=O)oc12,i
Cc1ccc(NC(=O)c2ccc(C)c(S(=O)(=O)N3CCOCC3)c2)cc1,0.6%
CCN1CCN(S(=O)(=O)c2c(Cl)cccc2Cl)CC1,i
CCOc1ccc2nc(NC(=S)NC(=O)c3cccs3)sc2c1,2.0%
CSc1cccc(NC(=O)C2CCN(S(=O)(=O)c3ccc(F)cc3)CC2)c1,i
COc1ccc(C2(C(=O)Nc3ccccc3OC)CCOCC2)cc1,0.8%
COc1ccc(Br)cc1CNc1ccc(O)cc1,i
COc1cccc(NC(=O)C(=O)NCc2cccs2)c1,i
COc1ccc(NC(=O)c2ccc(-n3c(C)ccc3C)cc2)c(OC)c1,i

(continued)
smiles,Mtb growth
Cc1ccc(C)c(OCC(=O)Nc2ccccc2F)c1C,1.4%
O=C(Nc1cc([N+](=O)[O-])ccc1O)c1ccc(Br)o1,i
S=c1[nH]nc(CCc2ccccc2)n1Cc1ccccc1,11.2%
O=C(Nc1ccccc1OC(F)F)c1ccc(-c2ccccc2)cc1,2.8%
COC(=O)C1=CN(Cc2cccs2)C=C(C(=O)OC)C1c1cc(F)ccc1F,i
O=C(Nc1ccc(Cl)cc1Cl)C1CCN(S(=O)(=O)c2ccc(Cl)cc2)CC1,1.2%
O=C(NCCCN1CCCC1=O)c1cc(Br)ccc1Cl,i
O=C(Nc1ccccc1C(=O)NCCN1CCOCC1)c1cccc(I)c1,i
COC(=O)c1ccc(NC(=S)NC(=O)C(C)(C)C)cc1,i
CCn1cc(C(C)NC(=O)Nc2ccccc2C(=O)OC)c(C)n1 (stereo unspecified),i

Next section:
smiles,Mtb growth
Cc1ccc(S(=O)(=O)N2C(=O)CCC2C(=O)Nc2ccccc2C(N)=O)cc1 (stereo unspecified),i
CC(C)Oc1ccccc1NC(=O)CSc1nc2sc3c(c2c(=O)n1C)CCCC3,1.8%
COc1ccccc1OCC(=O)NCc1ccccn1,i
CC1=C(C(=O)N2CCOCC2)C(c2ccc(Cl)cc2)C2=C(CCCC2=O)N1 (stereo unspecified),i
Cc1ccc(C2c3c(oc4ccccc4c3=O)C(=O)N2c2nccs2)o1 (stereo unspecified),i
CCc1nnc(NC(=O)c2ccc(S(=O)(=O)N(C)C)cc2)s1,i
COC(=O)Cc1c(C)c2ccc(OCC(=O)OC(C)(C)C)cc2oc1=O,i
COc1ccccc1CCNC(=O)Nc1ccc(F)cc1F,i
CC1(C)CC(=O)C2=C(C1)OC1=C(C(=O)CC(C)(C)C1)C2c1ccc(Cl)c(Cl)c1,i
CC(C)OCCCNS(=O)(=O)c1cc(Cl)ccc1Cl,i

Later entries
smiles,Mtb growth
c1cnc(SCCOc2cccc3ccccc23)nc1,0.2%
Cc1cc(C(=O)Nc2sc3c(c2C#N)CCC3)no1,3.4%
O=C1Nc2ccc(Br)cc2C1(O)Cc1ccncc1 (stereo unspecified),i
COc1ccc(C)cc1NC(=O)c1sc2nc(C)cc(C)c2c1N,i
CCOc1ccccc1C(=O)Nc1nc(-c2ccc(F)cc2)cs1,i
Cc1cc2nn(-c3ccccc3)nc2cc1NC(=O)c1cccc(F)c1,i
Cc1cccc(-c2nc(C#N)c(NCCCN3CCOCC3)o2)c1,i
COc1ccc(C(=O)NC(=S)N2CCN(C)CC2)cc1Br,42.2%
CCc1sc(NC(=O)C2CCCCC2)nc1-c1ccccc1,i
C1=C(c2cccnc2)Nc2ncnn2C1c1cccs1 (stereo unspecified),i

(continued)
smiles,Mtb growth
COc1ccc(C(=O)NC(C(=O)OCc2ccc([N+](=O)[O-])cc2)C(C)C)cc1OC (stereo unspecified),i
CCn1c(SCC(=O)Nc2cccc(OC)c2)nc2scc(-c3ccccc3)c2c1=O,i
Cc1cccc(CN(CC(=O)N2CCC(C)CC2)S(=O)(=O)c2ccc(Cl)cc2)c1,3.2%
CS(=O)(=O)N(CC(=O)Nc1ccccc1C(F)(F)F)c1cc(Cl)c(Cl)cc1Cl,0.1%
O=C(Nc1ccc(Cl)cc1F)c1cccnc1,i
O=C(NNC(=S)NCc1ccco1)c1sc2cccc(Br)c2c1Cl,i
CCNC(=O)C(=O)NCc1ccccc1C,1.0%
O=C(Nc1ccc(O)cc1)c1ccc(Br)o1,i
O=C(Nc1ccc2nccnc2c1)Nc1ccccc1F,i
CCN(CC)C(=O)Nc1cc(OC)c(Cl)cc1OC,i

Later entries:
smiles,Mtb growth
O=C(Nc1nnc(COc2ccc(F)cc2)s1)c1cccc2ccccc12,i
Cc1ccc(-c2cc(C(F)F)n3ncc(C(=O)N4CCSCC4)c3n2)cc1,6.0%
CC(=O)c1ccccc1OC(=O)c1ccc(C)c(I)c1,11.2%
O=S(=O)(NCc1ccc(Cl)cc1Cl)c1ccc2c(c1)OCCO2,i
CCOC(=O)C1=C(C)N=c2s/c(=C3\C(=O)N(C)c4ccccc43)c(=O)n2C1c1ccc(OC)c(OC)c1 (stereo unspecified),i
COc1cc(Cl)cc(/C=C/c2ccc3cccc(OC)c3n2)c1OC(C)=O,8.3%
Cc1cc(C(=O)N2CCN(c3ccccn3)CC2)no1,i
CCCCNCc1cc(Cl)c(OCC(=O)NC(C)(C)C)c(OCC)c1,3.6%
COc1ccc(NC(=O)c2ccc(-n3cnnn3)cc2)cc1,i
Cc1cc(NC(=O)c2ccccc2NS(C)(=O)=O)ccc1Br,i

The list goes on.
smiles,Mtb growth
NC(=O)c1ccccc1NC(=O)COc1ccc(-c2ccccc2)cc1,i
COc1ccc(CN2C(=O)c3ccccc3C2=O)cc1,i
CCOc1ccc(C(=O)Nc2ccccc2N2CCCC2)cc1,?
COc1cccc2ccc(/C=C/c3ccc(OC(C)=O)c(Br)c3)nc12,i
Cc1cc(F)ccc1NC(=O)c1cnccn1,i
Cc1ccc(Cl)c(NC(=S)NCCN2CCN(c3ccc(Cl)cc3C)CC2)c1,29.9%
O=C(Cc1cccs1)NCc1ccc(F)cc1,i
CCc1c(C)sc(NC(=S)Nc2ccc3c(c2)CCC3)c1C(=O)OC,i
O=C1CC(C(=O)NCc2ccccc2)N=C(N2CCCCC2)N1 (stereo unspecified),0.6%
COC(=O)CCSC1CC(=O)N(c2ccccc2)C1=O (stereo unspecified),i

(listing goes on)
smiles,Mtb growth
Cc1cccc(C(=O)Nc2ccc(S(=O)(=O)Nc3ccc(C)c(C)c3)cc2)c1,i
CCc1ccc(OCC(=O)Nc2ccc(S(=O)(=O)N(CC)CC)cc2)cc1,i
CN(C)c1ccc(C(=O)OCc2ccccc2)cc1,i
Cc1ccc(NC(=O)c2cc(NC(=O)Cc3ccccc3)ccc2N2CCCCC2)cc1,6.0%
Cc1cc(Br)ccc1NC(=O)c1cc2ccccc2o1,42.6%
O=C(COc1ccc(Cl)cc1)Nc1cc(Cl)c(O)c(Cl)c1,10.6%
O=S(=O)(NC(=NCc1ccccc1)c1ccccc1F)c1ccccc1,0.2%
O=S(=O)(c1ccc(NC(=S)NCc2cccnc2)cc1)N1CCOCC1,i
COc1ccc2nc(SCC(=O)Nc3ccccc3NC(=O)CSc3nc4ccc(OC)cc4[nH]3)[nH]c2c1,i
COc1ccc(C(=O)Nc2cccc(Cl)c2Cl)cc1Cl,i

Some of the entries so far, as labelled records.
> O=C(COc1ccc(Cl)cc1)Nc1cc(Cl)c(O)c(Cl)c1
  Mtb growth = 10.6%
> COc1ccc(C(=O)Nc2cccc(Cl)c2Cl)cc1Cl
  Mtb growth = i

(list continues)
smiles,Mtb growth
CN(C(=O)C12CCC(C)(C(=O)C1)C2(C)C)c1ccccc1 (stereo unspecified),1.6%
CCc1ccc(OCC(=O)Nc2ccc3oc(-c4ccc(F)cc4)nc3c2)cc1,4.1%
COc1cc(OC)c(NC(=O)c2ccccc2OC)cc1Cl,i
Cc1ccc(S(=O)(=O)N(CC(=O)Nc2ccc3c(c2)OCO3)c2cccc(C)c2C)cc1,2.1%
CS(=O)(=O)N1CCC(N2CCN(Cc3ccccc3)CC2)CC1,i
CCOc1ccc(-c2cc(C(=O)NCc3ccco3)c3ccccc3n2)cc1,3.2%
Cc1ccc(NC(=O)CCC2CCCCC2)cc1C,i
CC(=O)c1ccc(NC(=S)N2CCN(c3cccc(Cl)c3)CC2)cc1,i
C=CCNC(=O)c1cc2cc(OC)ccc2oc1=O,i
O=C(Nc1ncc(Cc2ccc(F)cc2)s1)c1sc2ccccc2c1Cl,12.9%

Carrying on:
smiles,Mtb growth
CCOC(=O)c1c(NC(=O)Cc2ccccc2)sc(C(=O)N2CCOCC2)c1C,2.2%
COc1ccc(N2CCN(Cc3nc(-c4ccccc4)no3)CC2)cc1,i
COc1ccc(C2=CC(=O)c3ccccc3C2=O)cc1,3.53µg/mL*
CC(C)(Oc1ccc(Cl)cc1)C(=O)Nc1nc2ccc(S(C)(=O)=O)cc2s1,i
CCNC(=O)c1c(NC(=O)c2oc3ccccc3c2C)sc2c1CCCC2,i
COc1ccc(CCNC(=O)NC(C(F)(F)F)C(F)(F)F)cc1OC,i
O=C(COc1ccccc1)NCCc1cccc(Cl)c1,0.6%
O=C(c1ccccc1)N1CCN(S(=O)(=O)N2CCOCC2)CC1,i
CC(Oc1ccccc1)c1nnc(SCC(=O)Nc2ccc(Br)cc2F)n1C (stereo unspecified),i
O=C(O)CCC(=O)N1N=C(c2cccs2)CC1c1ccc(Br)cc1 (stereo unspecified),i

Next compounds:
smiles,Mtb growth
N#C/C(=C\Nc1ccc(C(=O)O)cc1)c1nc2ccccc2[nH]1,33.9%
Cn1nc(CC(=O)N2CCN(c3ccccc3)CC2)c2ccccc2c1=O,i
O=C(Oc1cccc2c(OC(=O)N3CCCCC3)cccc12)N1CCCCC1,i
Cc1ccc(N2CCN(S(=O)(=O)c3ccc(Cl)c(Cl)c3)CC2)c(C)c1,1.0%
COC(=O)c1cc(OC)c(OC)cc1NC(=O)c1ccc(C)cc1Cl,i
COc1ccc(NC(=O)CC2C(=O)N(Cc3ccccc3)C(=S)N2CCc2ccc(F)cc2)cc1 (stereo unspecified),i
Cc1ccc(C)c(C(=O)Nc2ccc(Br)cc2C)c1,i
Cc1ccc(C(C)C)c(OCC(=O)Nc2cccc(C)c2C)c1,i
COC(=O)c1ccccc1NC(=O)CSc1nnc(CSc2nc(C)cc(C)n2)o1,i
O=S(=O)(c1ccc(Br)cc1)N1CCCCC1,3.3%
CN1CCN(CCOCCOc2ccc(F)cc2)CC1,i
CC1=CC(C)(C)N(C(=O)c2ccccc2)c2ccc(C)cc21,3.9%

High-throughput results from PubChem BioAssay.
